ABHD5-PLIN5 inh: inhibitors of human ABHD5-perilipin-5 interaction. Q00G26+Q8WTS1. Split G. princeps luciferase complementation, luminescence, 4 h. inhibition, % at 4 µM. hit rate 0.78% among 360,000;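 active means inhibition above the mean inhibition across every tested compound plus 3 SD, cut at about 22% in these data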;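 further: 0% = DMSO only wells and the 100% control is not disclosed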
NOD2-RIPK2 inh: NOD2-RIPK2 protein interaction inhibition; O43353; CHO BLA complementation NOD2-RIPK2, CCF4 ratio; inhibition, % at 4.98 µM; hit rate 0.38% among 360,000; AID 624267; in the data active means inhibition above about 21%;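 further: 0% = vehicle only and 100% = reference blocker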
NCOA1 inh: inhibits human SRC1 coactivator. inhibition, % at 3.6 µM. Q15788. hit rate 0.12% among 360,000. HEK293 GAL4-SRC1 luciferase reporter, luminescence;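 active means inhibition above the campaign mean plus 3 SD, with each screening campaign given its own cutoff, cut at about 60% in these data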;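 further: 0% = DMSO treated cells and 100% = gossypol at 36 µM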
TLR9-MyD88 inh: inhibitors of human TLR9-MyD88 binding; Q9NR96+Q99836; CHO BLA complementation TLR9-MyD88, CCF4 FRET ratio; AID 504734; inhibition, % at 4.98 µM; hit rate 0.21% among 340,000;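 active means inhibition above the mean over all tested compounds plus 3 SD, cut at about 21% in these data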;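 further: 0% = DMSO only wells and 100% = clavulanate BLA inhibitor control wells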
COUP-TFII inh: blocks human COUP-TFII nuclear receptor; HEK293T NGFI-A luciferase reporter, luminescence; inhibition, % at 8.6 µM; hit rate 0.7% among 370,000;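 active means inhibition above a per-plate cutoff, mean inhibition of test wells between control levels plus 3 SD, cut at about 38% in these data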;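 further: cells cotransfected with COUP-TFII expression vector driving the NGFI-A reporter; 0% = median of COUP-TF2 test wells and 100% = reporter-only cells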
LRH-1 inv ag: inverse agonists of human LRH-1 (NR5A2) | inhibition, % at 3.6 µM | HEK293T StAR-luciferase reporter, LRH-1 transfected, 24 h | hit rate 0.13% among 360,000;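 active means inhibition above the mean inhibition of all tested compounds plus 3 SD, cut at about 73% in these data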;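 further: 0% = DMSO wells and 100% = reporter-only cells lacking LRH-1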
SRC2 inh: human SRC2 (NCOA2) inhibition. Q15596. HEK293 GAL4-SRC2 luciferase reporter, luminescence. inhibition, % at 9 µM. hit rate 0.17% among 370,000;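 active means inhibition above the mean inhibition of all tested compounds plus 3 SD, set per campaign, cut at about 52% in these data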;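 further: 0% = DMSO treated cells and 100% = cells given Gossypol at 36 µM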
NCOA3 inh: inhibitors of human steroid receptor coactivator 3 (SRC3); HEK293 GAL4-SRC3 luciferase reporter, luminescence; inhibition, % at 3.6 µM; hit rate 0.17% among 360,000; AID 588352;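 active means inhibition above a per-campaign cutoff, the mean of all compounds plus 3 SD, cut at about 60% in these data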;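 further: 0% = DMSO-treated cells and 100% = gossypol-treated cells at 36 µM; higher means less SRC3-driven luciferase light from the GAL4 reporter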
EBV LMP1 NFkB: inhibitors of Epstein-Barr LMP1-induced NF-kappaB reporter | AID 504558 | LMP1-induced NF-kappaB luciferase reporter cells, luminescence | hit rate 0.69% among 350,000 | inhibition, % at 12.5 µM; in the data active means inhibition above about 41%;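 further: 0% = neutral control wells and 100% = reference inhibitor control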
An asterisk follows results filed as active; . = no result given; & = joins results of further samples; ! = not confirmed by another sample. This is a subset; rates above refer to the full screens.

Labels used below – A = ABHD5-PLIN5 inh; B = NOD2-RIPK2 inh; C = NCOA1 inh; D = TLR9-MyD88 inh; E = COUP-TFII inh; F = LRH-1 inv ag; G = SRC2 inh; H = NCOA3 inh; I = EBV LMP1 NFkB
> CC(=O)NCCNC(=O)c1ccc(CSc2nc3ccccc3s2)cc1
  A: 1	B: -17	C: -66	D: -4	E: -1	F: -74	G: -6	H: -63	I: 28

> Clc1ccc2c(c1)C(N1CCNCC1)=Nc1ccccc1O2
  A: 2	B: -6	C: 6	D: -2	E: 4	F: -2	G: 2	H: -5	I: 9

> NCCCC[C@H](N[C@@H](CCc1ccccc1)C(=O)O)C(=O)N1CCC[C@H]1C(=O)O
  A: 6&-3	B: -15&7	C: 9&-10	D: 10&-5	E: -10&-9	F: 8&5	G: -15&0	H: -8&-29	I: 1&0

> Cc1nc(-c2ccc(C(=O)Nc3ccccc3F)cc2)cs1
  A: 0	B: -15	C: -16	D: -6	E: 37	F: -75	G: 25	H: -29	I: 20

> Cc1ccnc(NS(=O)(=O)c2ccc(N)cc2)n1
  A: -1	B: -8	C: -3	D: -1	E: -6	F: -51	G: 20	H: -1	I: 3

> COc1ccc2c(c1OC)C(=O)O[C@@H]2[C@H]1c2c(cc3c(c2OC)OCO3)CCN1C
  A: -5	B: 2	C: -3	D: -2	E: -11	F: 11	G: 1	H: 6	I: -2

> CC1(C)S[C@@H]2[C@H](NC(=O)Cc3ccccc3)C(=O)N2[C@H]1C(=O)O
  A: -5&-5	B: 1&1	C: -10&-9	D: -2&0	E: 9&-20	F: -15&-15	G: 11&-30	H: 16&-8	I: 32&-3

> CC/C(=C(\c1ccccc1)c1ccc(OCCN(C)C)cc1)c1ccccc1
  A: 38*!	B: 6&-12	C: -1&7	D: 16&-12	E: -12&13	F: 7&5	G: 8&-14	H: 5&3	I: -2&-10

> CC1C=CC=CC=CC=CC=CC=CC=CC(OC2OC(C)C(O)C(N)C2O)CC2OC(O)(CC(O)CC(O)C(O)CCC(O)CC(O)CC(=O)OC(C)C(C)C1O)CC(O)C2C(=O)O (stereo not drawn)
  A: 10	B: 4	C: -23	D: -10	E: .	F: 26	G: .	H: 12	I: 1

> COc1ccccc1OCC(O)CO (stereo not drawn)
  A: -4	B: -4	C: -10	D: -1	E: 8	F: -13	G: -14	H: -15	I: 1

> COCCc1ccc(OCC(O)CNC(C)C)cc1 (stereo not drawn)
  A: 0&0&3	B: -1&-13&2	C: 9&11&4	D: -9&0&-6	E: -12&-22	F: -7&-7&0	G: -8&-8	H: 8&-4&-2	I: -4&-6&5

> O=c1[nH]c(=O)n([C@H]2C[C@H](O)[C@@H](CO)O2)cc1C(F)(F)F
  A: -2	B: -1	C: 77*	D: -7	E: 4	F: -35	G: -27	H: 65*	I: 46*

> CCCCc1nc(Cl)c(CO)n1Cc1ccc(-c2ccccc2-c2nn[nH]n2)cc1
  A: 1	B: -4	C: -4	D: -4	E: -2	F: -20	G: 3	H: 9	I: 4

> Cc1nc(-c2ccc(NC(=O)c3ccco3)cc2)cs1
  A: 1	B: 9	C: -27	D: 2	E: 41*	F: -41	G: 43	H: -3	I: 64*

> O=c1oc2ccccc2cc1-c1cn2ccccc2n1
  A: -13	B: 7	C: 7	D: 4	E: 3	F: -9	G: 27	H: 21	I: 68*

A draw from above in order of molar mass, falling:
Labels used below – A = ABHD5-PLIN5 inh; B = NOD2-RIPK2 inh; C = NCOA1 inh; D = TLR9-MyD88 inh; E = COUP-TFII inh; F = LRH-1 inv ag; G = SRC2 inh; H = NCOA3 inh; I = EBV LMP1 NFkB
> COc1ccc2c(c1OC)C(=O)O[C@@H]2[C@H]1c2c(cc3c(c2OC)OCO3)CCN1C
  A: -5	B: 2	C: -3	D: -2	E: -11	F: 11	G: 1	H: 6	I: -2

> CC/C(=C(\c1ccccc1)c1ccc(OCCN(C)C)cc1)c1ccccc1
  A: 38*!	B: 6&-12	C: -1&7	D: 16&-12	E: -12&13	F: 7&5	G: 8&-14	H: 5&3	I: -2&-10

> Cc1nc(-c2ccc(C(=O)Nc3ccccc3F)cc2)cs1
  A: 0	B: -15	C: -16	D: -6	E: 37	F: -75	G: 25	H: -29	I: 20

Individual results from the list:
ABHD5-PLIN5 inh result of Cc1ccnc(NS(=O)(=O)c2ccc(N)cc2)n1 = -1
EBV LMP1 NFkB result of Clc1ccc2c(c1)C(N1CCNCC1)=Nc1ccccc1O2 = 9
ABHD5-PLIN5 inh result of NCCCC[C@H](N[C@@H](CCc1ccccc1)C(=O)O)C(=O)N1CCC[C@H]1C(=O)O = 6&-3
NOD2-RIPK2 inh result of CC1(C)S[C@@H]2[C@H](NC(=O)Cc3ccccc3)C(=O)N2[C@H]1C(=O)O = 1&1
LRH-1 inv ag result of CC(=O)NCCNC(=O)c1ccc(CSc2nc3ccccc3s2)cc1 = -74
EBV LMP1 NFkB result of COc1ccccc1OCC(O)CO (stereo not drawn) = 1

Reformatted: results already given
Compound	ABHD5-PLIN5 inh	NOD2-RIPK2 inh	NCOA1 inh	TLR9-MyD88 inh	COUP-TFII inh	LRH-1 inv ag	SRC2 inh	NCOA3 inh	EBV LMP1 NFkB
NCCCC[C@H](N[C@@H](CCc1ccccc1)C(=O)O)C(=O)N1CCC[C@H]1C(=O)O	6&-3	-15&7	9&-10	10&-5	-10&-9	8&5	-15&0	-8&-29	1&0
Cc1ccnc(NS(=O)(=O)c2ccc(N)cc2)n1	-1	-8	-3	-1	-6	-51	20	-1	3

Next compounds follow.
Labels used below – A = ABHD5-PLIN5 inh; B = NOD2-RIPK2 inh; C = NCOA1 inh; D = TLR9-MyD88 inh; E = COUP-TFII inh; F = LRH-1 inv ag; G = SRC2 inh; H = NCOA3 inh; I = EBV LMP1 NFkB
> CNCC[C@H](Oc1ccc(C(F)(F)F)cc1)c1ccccc1
  A: 6	B: 0	C: -5	D: -13	E: 12	F: -12	G: -31	H: 4	I: 2

> Cc1ccc(-c2cn3cc([N+](=O)[O-])ccc3n2)cc1
  A: -3	B: -4	C: -46	D: 4	E: 6	F: -68	G: -38	H: -32	I: 13

> Cc1[nH]cnc1CN1CCc2c(c3ccccc3n2C)C1=O
  A: 2	B: 0	C: 6	D: 0	E: 4	F: 8	G: -15	H: -5	I: 5

> CC[C@H](CO)NCCN[C@H](CC)CO
  A: 4	B: -7	C: 9	D: -10	E: 9	F: -8	G: -27	H: -6	I: -2

> CCC(CO)NCCNC(CC)CO (stereo not drawn)
  A: -4	B: -2	C: 21	D: 1	E: -1	F: 0	G: -37	H: -31	I: 13

> CCc1cccc2c3c([nH]c12)C(CC)(CC(=O)O)OCC3 (stereo not drawn)
  A: 3	B: -10	C: -31	D: 10	E: -52	F: 9	G: -37	H: 3	I: 2

> CC(=O)Nc1nnc(S(N)(=O)=O)s1
  A: -2	B: -2	C: -10	D: 0	E: -5	F: 27	G: -20	H: 6	I: 5

> CCc1c(C)[nH]c2c1C(=O)C(CN1CCOCC1)CC2 (stereo not drawn)
  A: 9	B: -9	C: -6	D: -10	E: -8	F: 7	G: 16	H: -8	I: -13

> NC[C@H](O)c1ccc(O)c(O)c1
  A: -9	B: -12	C: -25	D: 1	E: -45	F: 24	G: -42	H: -35	I: 6

> CCCCCCCCCCCCCCCC[n+]1ccccc1
  A: 21&13&20	B: -1&-13&-9	C: 9&19&-14	D: -1&-3	E: 51*!	F: 48&24&56	G: 9&35&-2	H: 36&21&5	I: 29&35

> COc1ccc(OC)c(C(O)CNC(=O)CN)c1 (stereo not drawn)
  A: 3	B: -19	C: -35	D: -14	E: -18	F: -2	G: 4	H: -24	I: 5

> OC(CCN1CCCC1)(c1ccccc1)C1CCCCC1 (stereo not drawn)
  A: -3	B: -14	C: 1	D: 16	E: 1	F: 4	G: 22	H: -5	I: 0

> CC/C(=C(/CC)c1ccc(O)cc1)c1ccc(O)cc1
  A: 2	B: -4	C: -18	D: 5	E: 9	F: 5	G: -3	H: -7	I: 8

> O=C1CC2(CCCC2)CC(=O)N1CCCCN1CCN(c2ncccn2)CC1
  A: 6	B: -29	C: 25	D: -9	E: -1	F: 13	G: -12	H: 1	I: -3

> CN1CCN2c3ccccc3Cc3ccccc3C2C1 (stereo not drawn)
  A: -6	B: -12	C: -4	D: 3	E: -7	F: 1	G: 5	H: 5	I: -4

Source: PubChem (several laboratories)
